PINK1 modulator – modulators of PINK1 expression; PINK1 immunofluorescence, high-content cytometry, 24 h; Potency, µM (doses to about 76.6 µM), without a hit: at the highest dose activation (PINK1 increase), actives largely listed as activators; hit rate 0.2% among 410,000; AID 624263; active = well fitted activation curve with a large enough effect; inconclusive = small, poorly fitted or top-dose-only effect; inactive = flat fitted curve, though single readings scatter; cell line not stated here;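 note: potency is the fitted concentration of half-maximal effect; % of control where 0% means no effect; nearly all actives have a fitted effect of over 65% in size; a mitochondrial uncoupler was the plate control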
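Fluorescence from anti-PINK1 antibody, together with nuclear and cell stains, was scanned on a laser-scanning cytometer. Before staining, stable-line cells were incubated 24 hours with compounds at 5 concentrations; primary antibody 12 h at 10 degrees C.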
TRPML1 agonist – human mucolipin-1 channel agonism; Q9GZU1; TRPML1-expressing cells, Ca2+ dye fluorescence, FDSS; host cell line not named in the record; reference of the full effect not given here; activation, % (no concentration beside the values); hit rate 0.12% among 410,000; AID 624414; in the data active = activation above about 50%; inconclusive = about 30% to 50%; inactive = below about 30%; note: 0% is about no effect; the text of the record puts the active cut at 80%
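Agonist activity was taken from a 110 s kinetic Ca2+ dye read on the FDSS after pinning compounds onto TRPML1-DL cells. The cells were seeded at 1,500/well with Tet inducer, incubated about 16 h, then dye-loaded at room temperature.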
D2 ag – activates the human D2 dopamine receptor. P14416. DiscoveRx PathHunter D2 beta-arrestin, luminescence, 90 min; 100% = 57 uM dopamine signal. activation, % (no concentration beside the values). hit rate 0.084% among 360,000. AID 624465; in the data active = activation above about 40%; inconclusive = about 15% to 40%; inactive = below about 15%; note: compound concentration not given in the record; the text of the record calls up to 30% inactive
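DiscoveRx PathHunter D2 beta-arrestin cells (2,100/well) attached overnight, then compound-stimulated 90 min at 37 C in HBSS/10 mM HEPES/0.1% Tween-20 buffer; beta-galactosidase complementation read by luminescence after 1 h at ambient temperature. Dopamine 57 uM final (EC100) as control.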
Six1-Eya2 blk – inhibitors of human Six1/Eya2 interaction | Q15475+O00167 | AlphaScreen GST-Six1/His-Eya2 binding, biochemical; hits give low values; control for the full effect not named in the record | activity change, % (no concentration beside the values) | hit rate 0.56% among 360,000 | AID 651725; in the data active = activity change below about -65%; inconclusive = about -30% to -65%; inactive = above about -30%; note: % is set by controls: 0 for no effect and ±100 for the full control effect; compound concentration not given in the record
Target sequence (O00167 whole entry, looked up): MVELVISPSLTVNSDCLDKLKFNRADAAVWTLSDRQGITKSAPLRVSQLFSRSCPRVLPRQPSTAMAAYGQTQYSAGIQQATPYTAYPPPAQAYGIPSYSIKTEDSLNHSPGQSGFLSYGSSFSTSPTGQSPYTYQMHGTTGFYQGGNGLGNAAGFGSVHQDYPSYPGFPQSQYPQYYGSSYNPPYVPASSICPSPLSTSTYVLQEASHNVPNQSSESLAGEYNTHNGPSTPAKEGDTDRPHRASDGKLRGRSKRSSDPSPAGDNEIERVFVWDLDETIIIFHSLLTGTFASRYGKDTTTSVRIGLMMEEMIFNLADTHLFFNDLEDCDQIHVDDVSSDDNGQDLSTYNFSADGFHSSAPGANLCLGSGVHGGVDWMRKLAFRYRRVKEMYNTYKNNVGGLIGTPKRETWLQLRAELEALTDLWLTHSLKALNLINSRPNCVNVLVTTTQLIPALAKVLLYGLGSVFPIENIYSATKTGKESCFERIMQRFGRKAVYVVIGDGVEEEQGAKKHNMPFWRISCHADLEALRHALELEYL
Target sequence (Q15475 whole entry, looked up): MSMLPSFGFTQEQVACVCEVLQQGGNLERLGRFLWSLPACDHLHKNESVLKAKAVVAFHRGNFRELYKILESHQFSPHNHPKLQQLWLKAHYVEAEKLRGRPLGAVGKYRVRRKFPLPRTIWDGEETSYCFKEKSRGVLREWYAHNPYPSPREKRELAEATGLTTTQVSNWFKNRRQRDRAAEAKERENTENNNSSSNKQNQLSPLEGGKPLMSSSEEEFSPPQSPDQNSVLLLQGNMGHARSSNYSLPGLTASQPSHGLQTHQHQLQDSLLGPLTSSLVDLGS
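AlphaScreen luminescence read after one hour at 37 °C in darkness. Pin-transferred compounds met GST-Six1 and His-Eya2 protein (5X stock 250 nM/500 nM) plus glutathione donor and Ni-chelate acceptor beads (5X, 50 ug/mL).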
CtBP-E1A blk – inhibitors of CtBP/E1A interaction; AlphaScreen GST-E1A/His-CtBP binding, 1536-well; hits give low values; control for the full effect not named in the record; activity change, % (concentration not given with the values); hit rate 0.49% among 340,000; in the data active means activity change below about -65%; inconclusive means about -30% to -65%; inactive means above about -30%; note: % is set by controls: 0 for no effect and ±100 for the full control effect
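In 5 uL wells, 23 nL compound meets equimolar GST-E1A and His-CtBP (5X stock 125 nM each) for 2 h, 37 °C. Beads (5X, 50 ug/mL) then 1 h, 37 °C, dark.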
D2 PAM – human D2 receptor positive allosteric modulation; DiscoveRx D2 beta-arrestin cells, luminescence, 90 min; 100% = 57 uM dopamine signal; potentiation, % (no concentration beside the values); hit rate 0.23% among 360,000; AID 624464; active = potentiation of 50% or more; inconclusive = 30% to 50%; inactive = 30% or less;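 note: compound concentration not given in the record; tested on top of an EC20 dose of dopamine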
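PathHunter D2 cells, attached overnight at 37 deg C, received compound in DMSO plus dopamine at EC20 (50 nM final) for 90 min at 37 deg C. Beta-arrestin recruitment was read as luminescence after 1 h with detection reagent at ambient temperature.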
An asterisk follows results filed as active; [ ] = dose if it differs, or a comment.

Screening O=C(COC(=O)c1ccccc1)Nc1ccc2[nH]c(=O)[nH]c2c1 returned PINK1 modulator -0.1%, TRPML1 agonist 1.4, D2 ag -2.1, Six1-Eya2 blk -3, CtBP-E1A blk 0 and D2 PAM -10.
For COc1cc(/C=C\C(=O)NCc2ccc3c(c2)cc(C)n3C)cc(OC)c1OC the results were PINK1 modulator 1.8%, TRPML1 agonist 1.4, D2 ag -3.5, Six1-Eya2 blk inconclusive, CtBP-E1A blk inconclusive and D2 PAM -9.
For O=c1nc(Nc2ccc(OCc3ccccc3)cc2)sc2ncccc12 the results were PINK1 modulator 7.3%, TRPML1 agonist 2.4, D2 ag 0.8, Six1-Eya2 blk 0, CtBP-E1A blk 3 and D2 PAM -5.
CCN1C(=O)[C@H]2[C@@H](c3ccc(-c4cccc(Cl)c4)c(OC)c3)N[C@@](C)(C(=O)OC)[C@H]2C1=O was read as PINK1 modulator 1.6%, TRPML1 agonist -0.6, D2 ag -2.3, Six1-Eya2 blk 3, CtBP-E1A blk -18 and D2 PAM -14.
Screening Cc1nn2cc(-c3ccccc3)nc2[nH]c1=O returned PINK1 modulator 0.1%, TRPML1 agonist 2.2, D2 ag -2.0, Six1-Eya2 blk -5, CtBP-E1A blk 1 and D2 PAM -13.
CC(C)NC(=O)c1ccccc1NC(=O)C1CCCO1 (configuration not stated) was read as PINK1 modulator 8.7%[38.3 µM], TRPML1 agonist -0.6, D2 ag -2.8, Six1-Eya2 blk 7, CtBP-E1A blk 3 and D2 PAM -5.
Screening CSCCC(NC(=O)COc1ccccc1)C(=O)N(C)Cc1ccc(SC)cc1 (configuration not stated) returned PINK1 modulator 0.8%, TRPML1 agonist -2.0, D2 ag 2.4, Six1-Eya2 blk -17 and D2 PAM 0.
COc1ccc(-c2nnc(SCC(=O)NC(=O)Cc3ccccc3)n2C)cc1 was read as PINK1 modulator 0.8%, TRPML1 agonist 0.5, D2 ag -0.7, Six1-Eya2 blk 7, CtBP-E1A blk 3 and D2 PAM 1.
For COc1cc(C=O)ccc1OS(=O)(=O)c1ccc(NC(C)=O)cc1 the results were PINK1 modulator -0.6%, TRPML1 agonist -0.5, D2 ag -7.2, Six1-Eya2 blk 2, CtBP-E1A blk 4 and D2 PAM 2.
For CN(C)CCCNC(=S)NCCNc1nc2cc3c(cc2cc1C#N)OCO3 the results were PINK1 modulator -1.2%, TRPML1 agonist 1.1, D2 ag -6.3, Six1-Eya2 blk -17, CtBP-E1A blk -5 and D2 PAM -11.

2 successive records already listed, for reference:
For COc1cc(C=O)ccc1OS(=O)(=O)c1ccc(NC(C)=O)cc1 the results were PINK1 modulator -0.6%, TRPML1 agonist -0.5, D2 ag -7.2, Six1-Eya2 blk 2, CtBP-E1A blk 4 and D2 PAM 2.
For CN(C)CCCNC(=S)NCCNc1nc2cc3c(cc2cc1C#N)OCO3 the results were PINK1 modulator -1.2%, TRPML1 agonist 1.1, D2 ag -6.3, Six1-Eya2 blk -17, CtBP-E1A blk -5 and D2 PAM -11.

Carrying on:
For CN1CCN(C(=O)C2CCC(CNS(=O)(=O)c3cccc4cccnc34)CC2)CC1 (configuration not stated) the results were PINK1 modulator 6.1%, TRPML1 agonist 0.3, D2 ag -4.6, Six1-Eya2 blk -8, CtBP-E1A blk 6 and D2 PAM -9.
O=c1[nH]nc(Cc2ccc(Cl)cc2Cl)c2ccccc12 was read as PINK1 modulator 1.9%, TRPML1 agonist -0.6, D2 ag -3.3, Six1-Eya2 blk -16, CtBP-E1A blk -2 and D2 PAM -23.
`O=C(CN1C(=O)c2ccccc2S1(=O)=O)Nc1ncccn1` gave PINK1 modulator -2.0%, TRPML1 agonist 0.7, D2 ag -3.0, Six1-Eya2 blk 4, CtBP-E1A blk 7 and D2 PAM -5.
For CCc1cc(=O)oc2c3c(cc(OCC(=O)NCc4ccccn4)c12)OC(C)(C)CC3 the results were PINK1 modulator 0.1%, D2 ag -3.4, Six1-Eya2 blk -11, CtBP-E1A blk -4 and D2 PAM 12.
For CN(C)Cc1nnnn1-c1ccccc1 the results were PINK1 modulator 1.4%, TRPML1 agonist 0.3, D2 ag -23, Six1-Eya2 blk 2, CtBP-E1A blk -12 and D2 PAM -10.
O=C(NNc1cccc(Cl)c1)c1cccnc1Oc1ccccc1 was read as PINK1 modulator -0.3%, TRPML1 agonist 0.3, D2 ag -3.5, Six1-Eya2 blk 6, CtBP-E1A blk -2 and D2 PAM -5.
`COC(=O)c1ccccc1NC(=O)C1CC=CCC1C(=O)O` (configuration not stated) gave PINK1 modulator -1.5%, TRPML1 agonist 0.1, D2 ag -0.8, Six1-Eya2 blk 2, CtBP-E1A blk -1 and D2 PAM 0.
For Cc1cc(C)nc(SCCCNCc2c(F)cccc2Cl)n1 the results were PINK1 modulator 1.9%, TRPML1 agonist 0.1, D2 ag -0.1, Six1-Eya2 blk -1, CtBP-E1A blk 3 and D2 PAM -2.
`O=C(Cn1ccnc1[N+](=O)[O-])NCc1ccccc1` gave PINK1 modulator 0.2%, TRPML1 agonist -0.1, D2 ag -2.9, Six1-Eya2 blk 4, CtBP-E1A blk 3 and D2 PAM 6.
COc1ccc(N2C(=O)CSC2c2cccc(F)c2)c(OC)c1 (configuration not stated) was read as PINK1 modulator 0.7%, TRPML1 agonist 0.9, D2 ag -5.0, Six1-Eya2 blk -1, CtBP-E1A blk 6 and D2 PAM -17.

The list goes on, overlapping the part above by 3 compounds.
For Cc1cc(C)nc(SCCCNCc2c(F)cccc2Cl)n1 the results were PINK1 modulator 1.9%, TRPML1 agonist 0.1, D2 ag -0.1, Six1-Eya2 blk -1, CtBP-E1A blk 3 and D2 PAM -2.
`O=C(Cn1ccnc1[N+](=O)[O-])NCc1ccccc1` gave PINK1 modulator 0.2%, TRPML1 agonist -0.1, D2 ag -2.9, Six1-Eya2 blk 4, CtBP-E1A blk 3 and D2 PAM 6.
COc1ccc(N2C(=O)CSC2c2cccc(F)c2)c(OC)c1 (configuration not stated) was read as PINK1 modulator 0.7%, TRPML1 agonist 0.9, D2 ag -5.0, Six1-Eya2 blk -1, CtBP-E1A blk 6 and D2 PAM -17.
Screening Cc1cccc(C)c1NC(=O)C(C)N1CCCC1 (configuration not stated) returned PINK1 modulator 4.0%, TRPML1 agonist 1.4, D2 ag 1.4, Six1-Eya2 blk -1, CtBP-E1A blk 8 and D2 PAM 0.
Cc1c(-c2ccccc2)sc(N)c1C(=O)N1CCOCC1 was read as PINK1 modulator -0.6%, TRPML1 agonist -0.9, D2 ag -5.1, Six1-Eya2 blk -4, CtBP-E1A blk 3 and D2 PAM -5.
`FC(F)(F)c1ccc(/C=N/n2c(COc3ccccc3)n[nH]c2=S)cc1` gave PINK1 modulator 3.8%, TRPML1 agonist 1.4, D2 ag 6.9, Six1-Eya2 blk -6, CtBP-E1A blk -22 and D2 PAM -16.
Screening S=C(NCc1ccc(Cl)cc1)Nc1ccc(Cl)cc1Cl returned PINK1 modulator 11%, TRPML1 agonist 0.7, D2 ag 0.1, Six1-Eya2 blk 12, CtBP-E1A blk 11 and D2 PAM -6.
`Cc1cccc(C(=O)Nc2cccnc2Cl)c1` gave PINK1 modulator -0.8%, TRPML1 agonist 0.1, D2 ag 1.3, Six1-Eya2 blk 12, CtBP-E1A blk 3 and D2 PAM -7.
For N#CC1(P(=O)(c2ccccc2)c2ccccc2)CCCC1 the results were PINK1 modulator -0.4%, TRPML1 agonist 6.5, D2 ag -1.5, Six1-Eya2 blk 2, CtBP-E1A blk 0 and D2 PAM -6.
`CS(=O)(=O)c1ccc(Cl)c(NC(=O)COC(=O)C23CC4CC(CC(C4)C2)C3)c1` gave PINK1 modulator 1.7%, TRPML1 agonist 4.5, D2 ag 4.9, Six1-Eya2 blk 3, CtBP-E1A blk 5 and D2 PAM 1.
Cc1cccc(C(=O)OCC(=O)NC(C)CCc2ccccc2)c1 (configuration not stated) was read as PINK1 modulator -0.4%, TRPML1 agonist 1.6, D2 ag -3.3, Six1-Eya2 blk 0, CtBP-E1A blk 0 and D2 PAM -3.
Screening Cc1nn(Cc2ccc(F)cc2)c(C)c1NC(=O)c1cccnc1Cl returned PINK1 modulator 1.3%, TRPML1 agonist 0.1, D2 ag -3.6, Six1-Eya2 blk -1, CtBP-E1A blk -11 and D2 PAM -1.
`O=C(COc1ccc2oc(-c3ccccc3)cc(=O)c2c1)Nc1ccccc1` gave PINK1 modulator 13%, TRPML1 agonist -0.5, D2 ag 0.5, Six1-Eya2 blk 4, CtBP-E1A blk 5 and D2 PAM -4.
`O=[N+]([O-])c1ccc(N2CCN(c3ccc(O)cc3)CC2)cn1` gave PINK1 modulator -0.4%, TRPML1 agonist -1.0, D2 ag inconclusive, Six1-Eya2 blk -18, CtBP-E1A blk -22 and D2 PAM 28.
For Nc1ccc(S(=O)(=O)N2CCCc3ccccc32)cc1 the results were PINK1 modulator 5.9%, TRPML1 agonist -0.6, D2 ag -5.7, Six1-Eya2 blk -5, CtBP-E1A blk -2 and D2 PAM -8.
For O=C(CNC(=O)Cc1ccc(Cl)cc1)NCC(=O)N1CCCCC1 the results were PINK1 modulator -0.5%, TRPML1 agonist -0.8, D2 ag -0.7, Six1-Eya2 blk 1, CtBP-E1A blk 3 and D2 PAM -8.
For CC(OC(=O)CNC(=O)c1sc2ccccc2c1Cl)C(=O)NC1(C#N)CCCCC1 (configuration not stated) the results were PINK1 modulator -1.4%, TRPML1 agonist 2.5, D2 ag -1.3, Six1-Eya2 blk -14, CtBP-E1A blk 11 and D2 PAM 14.
COc1cc(CNc2ncnc3c2ncn3[C@H]2CN(Cc3cccc4ccccc34)C[C@@H](CO)O2)cc(OC)c1OC was read as PINK1 modulator 3.5%, TRPML1 agonist 1.6, D2 ag 8.5, Six1-Eya2 blk -12, CtBP-E1A blk 0 and D2 PAM 6.
Screening Nc1ccc(S(=O)(=O)NNC(=O)C(=O)NNc2ccccn2)cc1 returned PINK1 modulator -1.8%, TRPML1 agonist 0.6, D2 ag -0.7, Six1-Eya2 blk -93*, CtBP-E1A blk -68* and D2 PAM 28.
`O=C(Nc1ccccn1)c1ccc(NC(=O)c2ccco2)cc1` gave PINK1 modulator -0.3%, TRPML1 agonist -0.8, D2 ag -5.4, Six1-Eya2 blk -1, CtBP-E1A blk -1 and D2 PAM -2.
`O=C(Nc1ccc(N2CCCCCC2)cc1)c1cccc(S(=O)(=O)N2CCOCC2)c1` gave PINK1 modulator 1.0%, TRPML1 agonist 0.5, D2 ag -1.5, Six1-Eya2 blk inconclusive, CtBP-E1A blk 5 and D2 PAM -5.
Screening CN1CCc2c(sc3c2C(=O)NC(c2ccccc2)N3)C1 (configuration not stated) returned PINK1 modulator 2.5%, TRPML1 agonist 5.8, D2 ag -2.8, Six1-Eya2 blk -6, CtBP-E1A blk -10 and D2 PAM -10.
For CC1(C)CC(=O)N(CC(=O)O)c2ccccc2S1 the results were PINK1 modulator 8.0%[38.3 µM], TRPML1 agonist 1.3, D2 ag 0.6, Six1-Eya2 blk 6, CtBP-E1A blk 0 and D2 PAM -8.
`CN(CCO)C(=O)CCC(=O)Nc1ccc(S(N)(=O)=O)cc1` gave PINK1 modulator 0.2%, TRPML1 agonist 0.7, D2 ag -2.2, Six1-Eya2 blk 12, CtBP-E1A blk 9 and D2 PAM -12.
For COc1ccc(/C=C2\CCOC2=O)cc1 the results were PINK1 modulator 0.2%, TRPML1 agonist 1.7, D2 ag -5.7, Six1-Eya2 blk 1, CtBP-E1A blk 2 and D2 PAM -26.
